KCNQ2 pot = enhances the rat KCNQ2 potassium channel. O88943. CHO-K1 KCNQ2, FluxOR thallium flux fluorescence; hits give high values. B-score at 10 µM. hit rate 0.54% among 310,000. AID 2239;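 active means fluorescence ratio B-score at least 3 SD of library B-scores, with initial fluorescence B-score within 3 SD, cut at about 5.3 in these data; same plate scores as AID 2156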;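 further: B-score of peak minus minimum over baseline fluorescence ratio after K+ and Tl+ stimulus; positive B-score means potentiation of KCNQ2 with more thallium influx and brighter signal; only the inactives scoring about 0 or higher are listed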
Target sequence (O88943 whole entry, looked up): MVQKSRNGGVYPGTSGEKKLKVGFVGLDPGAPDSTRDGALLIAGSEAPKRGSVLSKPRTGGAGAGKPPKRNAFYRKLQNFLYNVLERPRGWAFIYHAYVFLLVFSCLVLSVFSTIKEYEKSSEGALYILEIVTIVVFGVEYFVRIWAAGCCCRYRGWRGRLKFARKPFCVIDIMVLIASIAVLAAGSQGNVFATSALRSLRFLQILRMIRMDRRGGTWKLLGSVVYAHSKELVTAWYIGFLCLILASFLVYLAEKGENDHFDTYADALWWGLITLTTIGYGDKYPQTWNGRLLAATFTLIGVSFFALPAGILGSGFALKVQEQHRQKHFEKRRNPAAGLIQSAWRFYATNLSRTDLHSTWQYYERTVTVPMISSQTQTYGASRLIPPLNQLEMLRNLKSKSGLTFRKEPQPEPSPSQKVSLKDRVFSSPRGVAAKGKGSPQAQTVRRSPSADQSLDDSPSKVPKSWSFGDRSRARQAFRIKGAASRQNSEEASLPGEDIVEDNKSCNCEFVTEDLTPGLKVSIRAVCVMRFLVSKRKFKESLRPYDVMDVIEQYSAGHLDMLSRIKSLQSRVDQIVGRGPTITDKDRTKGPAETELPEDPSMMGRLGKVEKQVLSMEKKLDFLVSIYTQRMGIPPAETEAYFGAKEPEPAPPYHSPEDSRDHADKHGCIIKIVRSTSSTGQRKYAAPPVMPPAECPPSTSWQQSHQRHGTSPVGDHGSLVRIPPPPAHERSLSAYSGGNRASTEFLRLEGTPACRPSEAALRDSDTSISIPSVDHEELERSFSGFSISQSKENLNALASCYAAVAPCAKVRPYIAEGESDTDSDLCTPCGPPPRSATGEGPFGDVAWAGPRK
KCNQ2 pot baseline = second read-out of KCNQ2 pot, no call of its own (marks repeat the call); B-score; compound at 10 µM; measured here: initial fluorescence intensity artifact check;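 brightness before thallium and not channel activity; 0 = typical well and far values either way flag optical interference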
* hit, by the source's call. The list is partial; rates above refer to the full screens.

KCNQ2 pot,KCNQ2 pot baseline,structure
0.98,-0.92,COc1cccc(N2CC(C(=O)Nc3nnc(SCC(=O)NC4CCCC4)s3)CC2=O)c1 (stereo not given)
1,-0.72,Cc1cc2oc(C(=O)NCCc3ccc(S(N)(=O)=O)cc3)c(C)c2cc1C
2.3,-3,CCOC(=O)c1cc[n+](CC(=O)c2ccc(F)cc2)cc1
0.52,0.19,COc1cccc2[nH]c(C(=O)NCC3CCCO3)cc12 (stereo not given)
1.7,0.35,Cc1ccc(-n2c(N)c(C(=O)N3CCOCC3)sc2=S)cc1
0.29,0.34,CC(=O)Nc1nc(C)c(Oc2ccc(Cl)cc2)c(=O)[nH]1
2,0.96,COc1ccc(C)cc1S(=O)(=O)NC1CCCCC1
0.84,-2.8,Cc1cccc(N2CC(C)Cn3c2nc2c3c(=O)[nH]c(=O)n2C)c1 (stereo not given)
0.8,0.18,CCOC(=O)c1sc(-c2ccc(Cl)cc2)nc1O
0.69,-1,Cc1cc(C)c(NC(=O)C2CCN(c3cnccn3)CC2)c(C)c1
0.13,0.62,CC(C)NC(=O)CN1C(=O)C(C)(C)Oc2ccc(C(=O)NC3CCCCC3)cc21
0.32,-0.84,CCCCC(C(=O)NC(C)(C)C)N(Cc1ccco1)C(=O)c1snc(C(N)=O)c1N (stereo not given)
1,-0.25,O=C(COC(=O)/C=C/c1nc2ccccc2s1)Nc1cccc2ccccc12
2.3,-2.1,Cc1[nH]c2ccccc2c1CCN(Cc1cccs1)C(=S)NC(C)(C)C
0.91,-0.45,C=CCNc1nc(Cl)nc(Nc2ccc([N+](=O)[O-])cc2)n1
1.2,0,CCOC(=O)c1c(NC(=O)c2c(Br)cnn2C)c(C#N)nn1-c1ccccc1
0.93,-0.86,CCCOc1cc(CC(=O)NCc2ccco2)ccc1OC
0.03,-0.47,CC(C)NC(=S)N(CCc1ccncc1)C(C)C
2.1,-1.4,COC(=O)c1ccc(COC(=O)c2[nH]c(C)c(C(C)=O)c2C)o1
0.4,1,O=C(O)COc1ccccc1O
0.31,-0.59,CCOc1ccc2oc(C(=O)OCC(=O)NC(=O)NC3CCCC3)c(C)c2c1
1.4,-0.08,CCOCC(=O)Nc1cc(C(=O)Nc2cc(C)cc(C)c2)ccc1Cl
0.06,0.82,CCOC(=O)c1nnc(-c2ccccc2)nc1Oc1ccccc1Cl
0.77,-0.68,CCn1c(SCCC#N)nnc1-c1ccncc1
0.74,0.61,COc1cccc(OCCCCN2CCCCC2)c1
0.81,-1.1,CCCc1cc(=O)oc2cc(C)cc(OCC(=O)N3CCC(C(N)=O)CC3)c12
0.35,0.46,CN(CC(=O)NCc1ccc(F)cc1)S(=O)(=O)c1ccc2c(c1)c(=O)n(C)c(=O)n2C
1.2,-0.18,O=C(Nc1nncs1)c1cc(-c2ccncc2)nc2ccc(Cl)cc12
0.72,-2.5,O=C(NCCCNC(=O)c1c(F)cccc1F)c1c(F)cccc1F
0.04,0.58,COC(=O)/C(=C/c1ccco1)NC(=O)c1ccccc1
1.2,-0.16,O=C(Nc1cccc(F)c1)c1cc(S(=O)(=O)N2CCC(C(=O)O)CC2)ccc1F
0.43,0.05,COc1ccc(CNC(=O)C2CC(c3ccccc3[N+](=O)[O-])=NO2)cc1 (stereo not given)
0.7,1.8,O=C(CSc1ccccc1)NN1C(=O)c2ccccc2C1=O
0.69,-1.1,CCOC(=O)CSc1nnc(NC(=O)CN2CCN(C=O)CC2)s1
0.29,-0.08,Cc1ccc(OCCCCn2c(CO)nc3ccccc32)cc1
0.8,-1.9,Cc1ccccc1-n1nc(-c2cccnc2)cc1C(=O)N/N=C/c1ccncc1
0.33,-0.86,COC(=O)c1ccc(C(=O)OC)c(NC(=O)CCc2ccc(C)o2)c1
1,0.02,Cc1cc(NS(=O)(=O)c2ccc(NC(=O)CCN3C(=O)c4ccccc4C3=O)cc2)no1
0.88,-0.56,COc1cc(CC(=O)Nc2ccc3c(c2)CCC3)cc(OC)c1OC
1.2,0.66,NC(=O)COC(=O)CNC(=O)c1sc2ccccc2c1Cl
1.6,0.39,Cc1ccc(C(=O)COC(=O)c2cccc(N3C(=O)c4c(C)nc5ccccc5c4C3=O)c2)cc1C
3.3,-2.5,O=C(O)c1ccc(S(=O)(=O)/N=C2\C=C(Nc3ccccc3F)C(=O)c3ccccc32)cc1
0.17,0.31,CCN1C(=O)[C@H]2[C@@H](c3ccc(-c4ccc(Cl)c(Cl)c4)cc3)N[C@@](CC(C)C)(C(=O)OC)[C@H]2C1=O
0.17,-0.06,CCN(CC)c1nc(N)c2c(N)nc3c(c2c1C#N)CC(c1ccccc1)O3 (stereo not given)
1.9,-1.6,CCOC(=O)N1CCN(C(=O)c2ccc3c(c2)sc2nc(-c4ccc(OC)cc4)cn23)CC1
1.8,-0.16,O=S(=O)(O)c1nc2ccccc2n1CCOc1ccccc1
0.55,-1.5,CCOCC(O)CS(=O)(=O)c1ccccn1 (stereo not given)
1.1,1,O=C(c1ccco1)N1CCn2c1nc1ccccc12
1.1,0.77,O=C(O)/C(=C\c1cn(-c2ccccc2)nc1-c1ccc(Cl)cc1)NC(=O)c1ccccc1
0.28,-1.4,COCCCNC(=S)N1CCN(S(C)(=O)=O)CC1
0.03,-1.1,CCN(C(=O)Cn1cnc2cc([N+](=O)[O-])ccc2c1=O)C1CCS(=O)(=O)C1 (stereo not given)
1.5,-0.51,Cc1cc(Cl)c(S(=O)(=O)N2CCN(c3cccc(C)c3C)CC2)cc1OCC(N)=O
1.2,0.89,O=C(Nc1ccc(Cl)cc1)Nc1ccccc1C(=O)NCc1ccco1
0.22,-0.25,CC(=O)c1cccc(N/C=C\C(=O)c2ccc(C)cc2)c1
1.4,-0.58,Cc1ccc2nc(-c3cccc(N)c3)[nH]c2c1
0.92,-0.71,FC(F)(F)c1ccc(NCc2ccccn2)nc1

Continued.
KCNQ2 pot,KCNQ2 pot baseline,structure
0.62,0.15,c1ccc(-c2cnc(SCCN3CCOCC3)n2CC2CCCO2)cc1 (stereo not given)
1.1,0.15,N#C/C(=C\c1cn(-c2ccccc2)nc1-c1ccccc1)S(=O)(=O)c1ccccc1
0.32,-1.4,COc1cc(NS(=O)(=O)c2cccc3nsnc23)cc(OC)c1
0.77,0.81,O=C(NCc1ccccc1)c1cc(-c2ccncc2)nc2ccc(S(=O)(=O)N3CCOCC3)cc12
0.49,-0.21,CC1CC(=O)NN1C(=O)c1ccccc1 (stereo not given)
0.01,-0.01,CCc1nnc(NC(=O)Cc2ccc(OC)cc2)s1
1.9,-0.68,O=c1nc(Nc2cccc(Cl)c2)oc2cc(Cl)oc(=O)c12
0.17,-2.9,Cn1cccc1C(=O)NC1CCCCC1

2 successive records already listed:
KCNQ2 pot,KCNQ2 pot baseline,structure
0.49,-0.21,CC1CC(=O)NN1C(=O)c1ccccc1 (stereo not given)
0.01,-0.01,CCc1nnc(NC(=O)Cc2ccc(OC)cc2)s1

New compounds follow
KCNQ2 pot,KCNQ2 pot baseline,structure
0.49,1.5,O=C(c1ccc(CN2CCOCC2)cc1)N1CCN(c2ccccc2)CC1
0.76,-0.06,CCCc1cc(=O)c2ccc(OCC(C)=O)cc2o1
2.2,0.23,C=CCn1c(N)c(C(=O)N2CCOCC2)sc1=S
0.31,0.14,CCOCC(=O)Nc1c(C(=O)N2CCN(c3ncccn3)CC2)oc2ccccc12
0.14,-0.73,COc1ccccc1CCc1nnc(CCC(=O)N(C)Cc2ccncc2C)o1
0.61,0.5,COc1ccc(CCCNC(=O)CC#N)cc1OC
0.95,-0.15,Cc1cc(C=O)c(C)n1-c1ccc(N2CCOCC2)c([N+](=O)[O-])c1
0.3,0.2,COc1ccc(NS(=O)(=O)c2cc(NC(=O)c3nn(C)c(=O)c4ccccc34)ccc2OC)cc1
0.09,-1.3,CC(=O)c1ccc(N2CCN(C(=O)Cc3ccccc3)CC2)c(F)c1
0.04,-2.2,CC(C)(C)NC(=O)CN(Cc1ccc(F)cc1)C(=O)Cn1nnc(-c2ccc(F)cc2)n1
2.7,-0.32,CN(CC(=O)Nc1ccc(Cl)cc1)S(=O)(=O)c1cccc2cccnc12
0.65,1.1,COc1cccc(OC)c1C(=O)Nc1cccc(-c2nc3ccccc3[nH]2)c1
1.2,0.11,CCOc1ccc(NC(=O)NC2CCOC(C)(C)C2)cc1 (stereo not given)
0.19,-0.67,O=C(CSc1nc2ccc(Cl)cc2[nH]1)NC1CCCC1
2.2,-1.3,O=C(CSc1nc2c(c(=O)n1-c1ccc(Cl)cc1)SCC2)N1CCCC1
0.16,0.43,Cn1c(CN2CCN(C(=O)c3ccccc3Cl)CC2)nc2cc([N+](=O)[O-])ccc21
0.85,-0.09,COc1ccc(CCNC(=O)c2cc(-c3ccccc3OC)on2)cc1OC
0.47,-0.6,Cc1cc(N2CCN(C)CC2)nc2ccc(NC(=S)N3CCOCC3)cc12
1.1,-1.8,Cc1ccc(NC(=O)c2cc(-c3ccco3)nc3ccccc23)cc1S(=O)(=O)N1CCOCC1
1.6,-0.04,C/C(=C\C(=O)O)CC(=O)O
3,0,S=C(NCc1ccco1)Nc1cccc(Cl)c1Cl
0.26,-0.51,Cc1ccc(NC(C(N)=O)c2c(C)[nH]c(=O)[nH]c2=O)cc1 (stereo not given)
0.81,1.1,Cc1ccc(C)c(NC(=O)c2cc3ccccn3n2)c1
0.64,2,CCn1c(=S)sc2c(=O)n(CC(=O)NC(C)CCc3ccccc3)c(C)nc21 (stereo not given)
1.8,-1.6,O=C(Nc1ncccn1)c1cccc(F)c1
0.58,-0.52,COc1ccc(C)cc1NC(=O)CSc1nnc2ccc(-c3ccncc3)nn12
1.4,-0.11,O=C(Nc1ccon1)c1ccc(F)c(S(=O)(=O)N2CCCCC2)c1
1.6,3.9,CCOC(=O)c1c(-c2ccc(C)o2)csc1NC(=S)NC(=O)c1cccs1
1.1,-1.2,NC(=O)CSc1nnc(-c2ccc(S(=O)(=O)N3CCCC3)cc2)o1
1.7,0.03,O=C1CCCCN1CC(=O)N1CCCC(N2CCN(c3ccccc3F)CC2)C1 (stereo not given)
1.2,-0.37,CSc1ccccc1OCc1cc(C(=O)N(C)C(C)c2nc(C)cs2)no1 (stereo not given)
0.93,-0.66,CCCCn1c(=O)[nH]c(=O)c2c1nc(-c1ccc(C(F)(F)F)cc1)n2C
0.95,-0.83,CCn1cc(C=O)c2cc(S(=O)(=O)N3CCOCC3)ccc21
1.5,-0.16,O=C(NCC1CCCO1)c1ccc(NC(=O)c2cccc(Br)c2)cc1 (stereo not given)
1.5,1.9,Cc1nnc2sc(SCc3cccc(Cl)c3)nn2c1=O
0.13,1.9,COc1ccc(-c2cn(CCC(=O)NCc3ccc(C)cc3)c(CCN)n2)cc1
0.84,-2.5,CCOC(=O)CN(C(=O)CCC(=O)Nc1cc(C)on1)C(C(=O)NC1CCCC1)c1cccnc1 (stereo not given)
0.32,-0.03,CCCCCCOC(=O)C(C#N)c1nc2ccccc2nc1N1CCOCC1 (stereo not given)
0.36,-0.1,COc1cccc(C(=O)NC2CCN(CC(=O)NCc3ccccc3F)CC2)c1
0.67,-0.26,CSCCC(NC(=O)c1ccccc1Cl)C(=O)N1CCC1 (stereo not given)

6 compounds picked at random from those above, as already listed:
KCNQ2 pot,KCNQ2 pot baseline,structure
1.5,1.9,Cc1nnc2sc(SCc3cccc(Cl)c3)nn2c1=O
1.5,-0.16,O=C(NCC1CCCO1)c1ccc(NC(=O)c2cccc(Br)c2)cc1 (stereo not given)
0.84,-2.5,CCOC(=O)CN(C(=O)CCC(=O)Nc1cc(C)on1)C(C(=O)NC1CCCC1)c1cccnc1 (stereo not given)
0.13,1.9,COc1ccc(-c2cn(CCC(=O)NCc3ccc(C)cc3)c(CCN)n2)cc1
0.95,-0.83,CCn1cc(C=O)c2cc(S(=O)(=O)N3CCOCC3)ccc21
0.32,-0.03,CCCCCCOC(=O)C(C#N)c1nc2ccccc2nc1N1CCOCC1 (stereo not given)

The listing picks up with the two entries that preceded the break.
KCNQ2 pot,KCNQ2 pot baseline,structure
0.36,-0.1,COc1cccc(C(=O)NC2CCN(CC(=O)NCc3ccccc3F)CC2)c1
0.67,-0.26,CSCCC(NC(=O)c1ccccc1Cl)C(=O)N1CCC1 (stereo not given)
0.93,-1.3,CC1CCN(C(=O)CC2C(=O)Nc3c2c(=O)n(C)c(=O)n3Cc2ccccc2)CC1 (stereo not given)
0.12,-1.1,CCOc1ccc(C(=O)CCC(=O)N(CC)CC(=O)Nc2c(F)cccc2F)cc1
0.2,-0.8,Nc1c(C(=O)NCCc2ccccc2)sc2nc(N3CCOCC3)c3c(c12)CCCC3
0.9,-0.73,Cc1ccc(NC(=O)CS(=O)CC(=O)Nc2ccc(N3CCOCC3)cc2)cc1Cl (stereo not given)
0.45,-0.02,O=C(O)c1ccc(S(=O)(=O)N2CCC(n3nnc4cc(C(F)(F)F)ccc43)CC2)cc1
1.9,-2.4,COc1ccc(-c2nc3c4c(ncn3n2)-c2ccccc2CC42CCCC2)cc1
0.1,-0.55,COc1ccc(C(=O)NC(=S)NCc2ccccc2)cc1
0.24,-0.3,CCCOc1ccc(C(C(=O)OCCN(CC)CC)c2ccccc2)cc1 (stereo not given)
1.1,0.37,N#C/C(=C\c1ccccc1O)C(=O)Nc1cccnc1

Source: PubChem BioAssay (Johns Hopkins Ion Channel Center)
